gsp ag = qHTS for Agonist of gsp, the Etiologic Mutation Responsible for Fibrous Dysplasia/McCune-Albright Syndrome: qHTS | gsp mutant cells, cAMP HTRF, 30 min; control for the full effect not named in the record | 0.13% of 340,000 active | Potency, µM (doses to about 76.9 µM), for the others: top-dose activation (cAMP increase), actives largely listed as activators | AID 624287, 2012; active = well fitted activation curve with a large enough effect; inconclusive = small, poorly fitted or top-dose-only effect, or another doubt; inactive = no such curve, though single readings can be large or run the other way; cell line not stated here;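 note: phosphodiesterase inhibitor Ro 20-1724 added with compounds to block cAMP breakdown; potency is the fitted concentration of half-maximal effect; nearly all actives have a fitted effect of over 60% in size; about a fifth of the inactives were tested at one dose only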
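Cells in DMEM/10% FBS with G418 were pretreated with compounds in DMSO plus […] (300 uM stock) for 30 min at 37C. cAMP was measured by HTRF (cAMP-d2 plus anti-cAMP antibody-K) after 30 min at room temperature.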
gsp antag = qHTS for Antagonists of gsp, the Etiologic Mutation Responsible for Fibrous Dysplasia/McCune-Albright Syndrome: qHTS | Potency, µM (top dose mostly 76.9 µM), for the others: at the highest dose activity change, negative = inhibition, hits mostly inhibitors | gsp-mutant cells, cAMP HTRF, 30 min; control for the full effect not named in the record | 0.4% of 340,000 active; active = falling curve of any shape with a large fitted effect; inconclusive = falling curve, mostly with a smaller effect; inactive = flat or rising curve; cell line not stated here;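 note: intracellular cAMP measured with PDE inhibitor Ro 20-1724 present during compound exposure; potency is the fitted concentration of half-maximal effect; % is set by controls: 0 for no effect and ±100 for the full control effect; nearly all actives have a fitted effect of over 65% in size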
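Measurement of cellular cAMP by homogeneous time-resolved fluorescence following a 30 min compound exposure at 37C. The PDE inhibitor […] was present throughout; the assay buffer was DPBS with 0.05% BSA and 0.005% Tween 20.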
D2 potentiator = Beta-Arrestin HTS for Positive Allosteric Modulators of the Human D2 Dopamine Receptor: Potentiators; D(2) dopamine receptor (Homo sapiens), P14416; DiscoveRx D2 beta-arrestin cells, luminescence, 90 min; 100% = 57 uM dopamine signal; potentiation, % (concentration not given with the values); 0.23% of 360,000 active; AID 624464, 2012; active = potentiation of 50% or more; inconclusive = 30% to 50%; inactive = 30% or less;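 note: compound concentration not given in the record; tested on top of an EC20 dose of dopamine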
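D2 cells co-treated with compound plus 50 nM dopamine (EC20) for 90 min at 37 deg C to detect potentiation. Beta-arrestin recruitment was read as enzyme-fragment luminescence after 1 h at ambient temperature. Full response was set by 57 uM dopamine.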
TRPV1 PAM = HTS Assay for Compounds that Act as Potentiators of the Vanilloid Receptor 1 | potentiation, % at 8.33 µM | AID 540277, 2011 | TRPV1-expressing cells, Fluo-8 calcium influx, capsaicin EC20 potentiation; host cell line not named in the record; control for the full effect not named in the record | 0.02% of 320,000 active | Transient receptor potential cation channel subfamily V member 1 (Homo sapiens), Q8NER1; active means potentiation above 80%; inconclusive means 30% to 80%; inactive means below 30%; note: 0% is about no effect
Target sequence (Q8NER1 whole entry, looked up): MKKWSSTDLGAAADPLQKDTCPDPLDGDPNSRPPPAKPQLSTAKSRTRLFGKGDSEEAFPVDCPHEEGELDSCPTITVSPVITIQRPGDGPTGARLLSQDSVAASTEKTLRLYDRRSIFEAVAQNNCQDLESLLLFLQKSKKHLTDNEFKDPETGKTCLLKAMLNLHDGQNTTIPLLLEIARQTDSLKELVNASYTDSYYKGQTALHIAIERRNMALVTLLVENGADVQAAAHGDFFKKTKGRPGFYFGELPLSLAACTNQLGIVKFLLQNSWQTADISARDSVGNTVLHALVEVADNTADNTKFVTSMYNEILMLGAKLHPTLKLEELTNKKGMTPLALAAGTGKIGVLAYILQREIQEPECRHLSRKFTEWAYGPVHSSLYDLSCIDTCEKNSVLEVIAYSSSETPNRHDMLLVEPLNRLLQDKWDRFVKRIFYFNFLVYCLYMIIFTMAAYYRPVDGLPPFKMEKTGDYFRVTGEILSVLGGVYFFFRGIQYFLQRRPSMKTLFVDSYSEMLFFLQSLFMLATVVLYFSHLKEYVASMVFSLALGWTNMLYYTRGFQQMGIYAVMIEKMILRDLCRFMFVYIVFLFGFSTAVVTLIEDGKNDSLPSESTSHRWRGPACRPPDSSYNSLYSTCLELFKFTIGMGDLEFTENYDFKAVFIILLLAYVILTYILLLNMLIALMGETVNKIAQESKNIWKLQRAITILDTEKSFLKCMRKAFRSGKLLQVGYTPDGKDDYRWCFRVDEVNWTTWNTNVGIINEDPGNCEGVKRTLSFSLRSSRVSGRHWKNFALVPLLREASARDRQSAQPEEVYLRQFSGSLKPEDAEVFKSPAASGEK
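Fluo-8 calcium influx in TRPV1-expressing cells, kinetic read (ex 480/em 520 nm). Compound added and read 3 min for agonist activity, followed by capsaicin at EC20 final and 2 min further read for enhancement.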
Sfp PPTase inh = qHTS Assay for Inhibitors of Bacillus subtilis Sfp phosphopantetheinyl transferase (PPTase) | Biochemical Sfp PPTase activity, qHTS | AID 1490, 2009 | 3.5% of 310,000 active | Potency, µM, without a hit: max response, negative = inhibition, usual class: inhibitors; active = well fitted inhibition curve with a large enough effect; inconclusive = small, poorly fitted or top-dose-only effect, or another doubt; inactive = no such curve, though single readings can be large or run the other way;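 note: the enzyme is Sfp with the accession as filed and its product quenches rhodamine fluorescence; potency is the fitted concentration of half-maximal effect; 0% = enzyme reaction without inhibitor and -100% = no enzyme wells; top concentration of the series not given in the record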
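Step 1, compound plus 15 nM Sfp-PPTase, 15 min, room temperature. Step 2, add rhodamine-CoA (5 uM) and BHQ-2-YbbR (12.5 uM). Step 3, read 525/598 nm fluorescence at 0 and 30 min.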
Menin MLL FP FL = qHTS Assay for Inhibitors Targeting the Menin-MLL Interaction in MLL Related Leukemias: Competition With Fluorescein Labeled MLL-derived Peptide. Fluorescence polarization, fluorescein-MLL peptide displacement from menin. FP activity change, % at 61.4 µM. 290,000 tested, under 10 active. AID 1766, 2009; inconclusive = falling polarisation curve, or a change in total fluorescence; inactive = total fluorescence flat and polarisation flat or rising; no compound was filed as active; the % refers to the polarisation; negative = inhibition;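 note: % of control where 0% means no effect; inhibitors lower the polarisation; unlabelled MLL peptide was the positive control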
ClpP mod = qHTS Assay for Activators of ClpP | ATP-dependent Clp protease proteolytic subunit (Bacillus subtilis (strain 168)), P80244 | purified B. subtilis ClpP, FRET peptide cleavage, 20 min | Potency, µM (series often up to 57.5 µM), without a hit: top-dose activity change, negative = active | 1.9% of 340,000 active | AID 651965, 2013; active = well fitted falling curve with a large enough effect; inconclusive = small, poorly fitted or top-dose-only effect; inactive = no such curve, though single readings can be large or run the other way; note: potency is the fitted concentration of half-maximal effect; the source files actives as falling curves though it sought activators and does not explain the sign; nearly all actives have a fitted effect of over 65% in size; many hits overshoot -100%
Target sequence (P80244 whole entry, looked up): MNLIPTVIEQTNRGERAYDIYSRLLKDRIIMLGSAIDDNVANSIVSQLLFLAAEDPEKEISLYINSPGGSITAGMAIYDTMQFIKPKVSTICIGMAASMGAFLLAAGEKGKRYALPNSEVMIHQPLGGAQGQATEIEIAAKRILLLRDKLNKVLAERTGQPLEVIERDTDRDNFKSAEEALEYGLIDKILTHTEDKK
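ClpP 10 microg/mL final, pH 8 Tris/KCl buffer with BSA, glycerol, Tween-20; compound pinned in; FRET-FV substrate; RT 20 min; Ex320/Em430; ΔFRET vs ADEP 5.8 microM, DMSO, no enzyme.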
* = called active by the depositor; ? = inconclusive; . = no result given; & = joins results of further samples; [ ] = remark or other dose. An unsorted share of the library. Share with any hit: about 5.1%.

SMILES	gsp ag	gsp antag	D2 potentiator	TRPV1 PAM	Sfp PPTase inh	Menin MLL FP FL	ClpP mod
CN(Cc1ccco1)S(=O)(=O)c1nnc(NC(=O)c2ccccc2Cl)s1	?	?	1	-3	-29%	.	-0.5%&-1.2%
COC(=O)c1sccc1-c1ccc(C(=O)Nc2ccccc2)o1	15%	-26%	2	.	-8%	1.9	-4.5%
CCCCN1Cc2c(nc3cc(-c4ccco4)[nH]n3c2=O)C1=O	6%	-11%	7	?	10µM*	?	.
Cc1c(NC(=O)c2cc(-n3cnnc3)ccc2Cl)cccc1-c1nc2ccccc2s1	-1%	?	-3	-4	-9%	2.8	1.4%
COCc1c(C(=O)OC)nnn1-c1ccc(C(F)(F)F)cc1[N+](=O)[O-]	2%[15.4 µM]	13%	23	0	26%	-3.1	.
Cc1nc(SCC(=O)Nc2cccc(S(=O)(=O)N3CCOCC3)c2)nc(C)c1C	?	20%	-4	.	.	.	.
O=C(Nc1cccc(Oc2ccc3c(c2)C(=O)NC3=O)c1)c1ccco1	-47%[inhibitor]	-13%	-2	7	-5%	1.7	1.3%
O=C(CSc1nnc2ccccn12)c1ccc(Cl)cc1	-3%	-1%	-4	-4	1%	0.8	-0.8%
Cc1nc(C)c(-c2ccnc(/N=C/NO)n2)s1	?	-3%	-1	2	14%	2.7	.
C=CCNC(=S)NN(c1ccccc1)c1ccccc1	-4%[15.4 µM]	.	-1	23	21%	2.2	.
Cc1cccnc1Nc1nc(-c2ccc(F)cc2)cs1	-3%[15.4 µM]	-14%	0	5	-21%	-3.6	-0.9%
COc1ccc(C(=O)Nc2ccccc2-c2ccccc2)cc1Cl	-25%	?	-8	2	5%	2.2	0.6%
Cc1ccc(S(=O)(=O)NC(C)C(c2cccs2)N2CCN(C)CC2)cc1 (stereo unspecified)	-49%[inhibitor]	4%	-8	15	10%	1.7	-2.1%
CC(=O)c1c(-c2ccc(Cl)cc2Cl)noc1C	0%[15.4 µM]	-6%	-8	.	7%	6.1	.
Cc1cc(=O)[nH]c(SCC(=O)N2CCCC2)n1	7%[15.4 µM]	9%	-5	.	.	.	22µM*
CCCCN1CC[C@@H]2C=CC[C@H](C(=O)OC)[C@@H]2C1=O	.	3%	-3	.	27%	4.5[94.6 µM]	-1.9%
CCc1ccccc1NC(=S)NC1CC2CCCC(C1)N2Cc1cccs1 (stereo unspecified)	-6%	5%	-19	-16	1%	2.8	-3.8%
CC(C)OC(=O)NC(c1ccccc1)C(Cl)(Cl)Cl (stereo unspecified)	8%[15.4 µM]	3%	-1	-3	10%	2.5	-1.1%
Cc1ccc(S(=O)(=O)N2CCN(Cc3cccc(C)c3O)CC2)cc1	41%	2%	-11	3	1%	0.1	6.1%
Cc1ccc(NC2=CC(=O)OC(C)C2)cc1 (stereo unspecified)	-2%	6%	3	-19	-4%	-0.5	2.8%
COCCn1c(C)cc(/C=C(\C#N)C(=O)OC(C)C(=O)Nc2ccc(NC(C)=O)cc2)c1C (stereo unspecified)	-4%[15.4 µM]	0%	1	10	.	.	.
CC(=O)NC(c1cccc([N+](=O)[O-])c1)c1ccc2cccnc2c1O (stereo unspecified)	19%	6%	-13	1	-3%	-1.0	.
CCCCc1nc2cc(C(=O)NC(C)c3cnn(C)c3)ccc2o1 (stereo unspecified)	-20%	6%	-7	?	15%	.	-1.0%
O=C1N(CCCl)c2ccc(Br)cc2C12OCCO2	2%[15.4 µM]	7%	-3	-9	9%	-5.0	-12%
COc1ccccc1N1CCN(C(=O)CSc2ncnc3scc(-c4ccccc4)c23)CC1	18%	4%	-8	18	2%	-2.1	-4.5%
Following part
SMILES	gsp ag	gsp antag	D2 potentiator	TRPV1 PAM	Sfp PPTase inh	Menin MLL FP FL	ClpP mod
CCN(CC)C(=O)Cn1cc(SCC(=O)Nc2cc(C)on2)c2ccccc21	-4%[15.4 µM]	-11%	-4	11	19%	-3.9	.
O=C(CSc1nc(=O)n2ccccc2n1)N1CCN(c2ccccc2)CC1	15%[15.4 µM]	9%	4	-7	.	.	.
Cc1ccc(NC(=O)CS(=O)CC(=O)NCCCN(C)c2ccccc2)cc1 (stereo unspecified)	-18%	0%	9	16	-18%	2.4	-2.3%
O=C(OCc1nnc(-c2ccc([N+](=O)[O-])cc2)o1)C1CCN(C(=O)c2ccc(Cl)cc2)CC1	6%[15.4 µM]	-9%	13	0	.	.	-4.8%
O=C(Cc1cccs1)N1CCN(S(=O)(=O)c2ccc(F)cc2)CC1	-1%	-2%	-2	-18	6%	-0.6	.
CCN(CC(=O)Nc1c(F)cccc1F)C(=O)CCNC(=O)c1ccccc1OC	-12%	8%	-13	3	.	.	1.5%
Cc1ccc(NC(=O)CCCN2C(=S)NC(C)(C)CC2C)cc1 (stereo unspecified)	5%[15.4 µM]	4%	-22	?	26%	-3.5	-0.4%
COc1ccc2cnn(CCOc3cc(C)ccc3C(C)C)c(=O)c2c1OC	3%	-14%	2	10	13%	-2.0	-16%
CCOc1ccc(N(CC(=O)Nc2ccccc2C(=O)N2CCCC2)S(C)(=O)=O)cc1	-2%[15.4 µM]	3%	-4	-2	12%	-2.5	.
O=C(CSc1nnc(SCc2ccc(Cl)cc2)s1)N/N=C/c1c(Cl)cccc1Cl	-58%[inhibitor]	6%	-10	-5	5%	1.7	1.4%
CC(=O)c1cccc(N=C2NC(=O)C(CO)(CO)S2)c1	3%	7%	2	-4	-5%	0.6	0.1%
CCC(C)C1NC(=S)N(C2CCCCC2)C1=O (stereo unspecified)	0%	7%	-10	-13	7%	3.8	1.2%
CCCOc1ccc(CCN2CCC(=O)NC2=O)cc1C	26%	7%	-5	-11	-2%	1.4	-2.7%
N#Cc1ccccc1S(=O)(=O)N1CCN(C(=O)c2cn(-c3ccccc3)nc2-c2cccnc2)CC1	?	-12%	-1	-1	.	.	-2.0%
CCCOc1ccc(C2C(C(=O)c3cc4ccccc4o3)=C(O)C(=O)N2c2cc(C)on2)cc1OC (stereo unspecified)	7.1µM*	11%	1	5	10%	.	3.9%
CCOC(=O)C1=C(C)NC(C)=C(C(=O)OCC)C1C(=O)OCC(=O)NCCc1ccccc1	17%[15.4 µM]	-15%	-20	.	.	.	-3.4%
CCOC(=O)Cn1cc(Cl)cc(C(=O)Nc2ccccc2)c1=O	13%	-10%	9	-9	5%	1.6	.
Cc1ccc(NC(=O)C2CCCN(S(=O)(=O)c3ccc4c(c3)oc(=O)n4C)C2)nc1 (stereo unspecified)	-33%	-7%	-3	27	-1%	-0.4	-0.4%
CC(CC(=O)O)Nc1ccccc1O (stereo unspecified)	-29%[15.4 µM]	-1%	2	6	35µM*	2.1	.
CN1CCN(CCC(=O)N/N=C/c2ccccn2)CC1	-13%	3%	-2	-12	-38%	-0.9	.
COc1ccc(C2/C(=C(/O)c3ccc4c(c3)CC(C)O4)C(=O)C(=O)N2CCCn2ccnc2)cc1OC (stereo unspecified)	-1%	16%	-16	.	.	.	-1.2%
COc1cc(/C=C/C(=O)OCC(=O)Nc2cccc(F)c2)ccc1O	1%[15.4 µM]	-20%	-37	.	.	.	0.5%
COc1ccc(NC(=O)CC2Nc3ccccc3NC2=O)c([N+](=O)[O-])c1 (stereo unspecified)	13%[15.4 µM]	-7%	0	?	19%	-5.7	.
c1ccc(-c2ccccc2-c2nc(-c3cccnc3)no2)cc1	?	14%	0	-8	-15%	2.8	-2.5%
CCOc1ccccc1Nc1nnc(SCC(=O)NC(=O)c2cccn2C)s1	-91%[inhibitor]	-13%	-7	6	8%	0.0	-0.7%

Brought forward from above: three entries; new compounds follow.
SMILES	gsp ag	gsp antag	D2 potentiator	TRPV1 PAM	Sfp PPTase inh	Menin MLL FP FL	ClpP mod
COc1ccc(NC(=O)CC2Nc3ccccc3NC2=O)c([N+](=O)[O-])c1 (stereo unspecified)	13%[15.4 µM]	-7%	0	?	19%	-5.7	.
c1ccc(-c2ccccc2-c2nc(-c3cccnc3)no2)cc1	?	14%	0	-8	-15%	2.8	-2.5%
CCOc1ccccc1Nc1nnc(SCC(=O)NC(=O)c2cccn2C)s1	-91%[inhibitor]	-13%	-7	6	8%	0.0	-0.7%
COc1ccc(S(=O)(=O)NC(Cc2ccccc2)C(=O)O)cc1 (stereo unspecified)	-13%	7%	-12	20	10%	3.6	-2.1%
CC1Cc2ccccc2N1C(=O)COC(=O)c1ccc(O)cc1 (stereo unspecified)	5%	1%	5	2	-14%	3.3	0.6%
Cc1noc(C)c1COC(=O)c1csc2c1CCC(C)C2 (stereo unspecified)	-9%	-9%	-10	-7	.	.	-1.1%
CC(CC(=O)Nc1nncs1)c1ccccc1 (stereo unspecified)	?	-3%	-1	1	16%	4.1	0.8%
Cc1ccc2c(c1)N(Cc1cccc(F)c1)C(=O)C(C)O2 (stereo unspecified)	8%	-17%	-16	-26	8%	-0.4	0.9%
COc1ccccc1C1CCN(Cc2cccc(C(=O)N3CCC(O)CC3)c2)CC1	-29%	2%	-5	19	6%	-6.7	-2.4%
COC(=O)CN(C#N)c1nc(OC)nc(N(C)C)n1	23%	12%	14	-4	23%	0.5	-0.8%
COc1ccc(S(=O)(=O)N2CCCCC2)cc1NC(=O)CN1CCN(C(C)=O)CC1	?	-2%	-3	28	10%	-3.9	.
Oc1ccc(/C=N/NC(=S)Nc2cccnc2)c(O)c1	-5%	5%	-35	2	-2%	3.0	-13%
COc1ccc(NC(=O)CCCN2C(=O)C(c3ccccc3)Oc3cccnc32)cc1OC (stereo unspecified)	?	-4%	-21	-4	3%	-2.0	-2.0%&-4.5%
O=C1NCCN(Cc2cccc(Oc3ccccc3)c2)C1CC(=O)N1CCCCO1 (stereo unspecified)	-83%[inhibitor]	1%	0	-14	-7%	-1.6	-4.4%

Assay outcomes as filed in PubChem.
